Cruzain inh Det: blocks cruzain activity in presence of Triton detergent. 0.43% of 200,000 active. purified cruzain, Z-FR-AMC fluorescence, 0.01% Triton. P25779. Potency, µM, inactives show max response, negative = inhibition, usual class: inhibitors;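 also: plate controls were neutral wells for no effect and buffer without enzyme for full effect; nearly all actives have a fitted effect of over 40% in size; top concentration of the series not given in the record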
Target sequence (P25779 123-467 limits assumed): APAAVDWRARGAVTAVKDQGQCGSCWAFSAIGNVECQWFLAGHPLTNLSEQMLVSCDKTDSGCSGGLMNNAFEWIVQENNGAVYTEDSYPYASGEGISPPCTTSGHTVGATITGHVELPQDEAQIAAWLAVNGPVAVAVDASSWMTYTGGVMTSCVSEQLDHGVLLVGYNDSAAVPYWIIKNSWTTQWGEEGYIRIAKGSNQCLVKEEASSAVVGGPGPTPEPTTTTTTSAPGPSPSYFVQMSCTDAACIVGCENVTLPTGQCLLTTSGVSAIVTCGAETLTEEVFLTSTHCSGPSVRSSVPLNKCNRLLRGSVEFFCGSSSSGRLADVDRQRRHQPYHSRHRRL
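Cysteine protease activity tested under reducing, mildly acidic conditions (100 mM sodium acetate pH 5.5, 5 mM DTT) plus 0.01% Triton X-100. Cruzain 1.5 nM; substrate Z-FR-AMC 2 uM; 15 min compound preincubation at room temperature.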
Marburg entry inh: inhibitors of Marburg virus binding or cell entry; Marburg virus pseudotyped entry inhibition, cell reporter; control for the full effect not named in the record; about a third of the inactives were read at about 46 µM; Potency, µM (doses to about 37.8 µM), for inactives: at the highest dose activity change, negative = inhibition, usual class: inhibitors; 1.8% of 300,000 active; active = well fitted inhibition curve with a large enough effect; inconclusive = small, poorly fitted or top-dose-only effect, or effect the other way; inactive = flat fitted curve, though single readings scatter; tested in HEK293 cells; about a fifth of its hits are not listed in these tables; also: % is scaled to controls: 0 for no effect and ±100 for the full control effect; luciferase read-out
NS1 function inh: influenza NS1 inhibition; Potency, µM (highest dose often 46.1 µM), inactives show top-dose activity, positive = more growth; 0.4% of 270,000 active; S. cerevisiae slowed by influenza A NS1, growth recovery by OD600; active means well fitted rising curve with a large enough effect; inconclusive means small, poorly fitted or top-dose-only effect; inactive means no such curve, though single readings can be large or run the other way; also: nearly all actives have a fitted effect of over 50% in size
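In this qHTS, NS1 from influenza A is expressed in budding yeast, where it slows growth. Cells are switched from glucose to 2% galactose medium (pH 6.0, -URA), treated with compound, and growth recovery is read at OD600.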
StopGo reporter: lowers the luciferase signal of an FMDV 2A StopGo reporter; human cells with a luciferase reporter of 2A StopGo recoding; control for the full effect not named in the record; Potency, µM (titrated, usually from 57.9 µM), for the others: at the highest dose signal change, negative = less light; 1.2% of 410,000 active; active = well fitted falling curve with a large enough effect; inconclusive = small, poorly fitted or top-dose-only effect; inactive = no such curve, though single readings can be large or run the other way; tested in HEK293T cells; also: % is scaled to controls: 0 for no effect and ±100 for the full control effect; nearly all actives have a fitted effect of over 45% in size; luciferase light after 4 h
LASV entry inh: Lassa virus entry inhibition | Lassa virus pseudotype entry inhibition, cell reporter; control for the full effect not named in the record | Potency, µM (series often up to 37.9 µM), for the others: at the highest dose activity change, negative = inhibition, usual class: inhibitors | 1.2% of 300,000 active | AID 540256; active means well fitted inhibition curve with a large enough effect; inconclusive means small, poorly fitted or top-dose-only effect, or effect the other way; inactive means flat fitted curve, though single readings scatter; tested in HEK293 cells; also: % is scaled to controls: 0 for no effect and ±100 for the full control effect; nearly all actives have a fitted effect of over 50% in size; luciferase read-out
RE007 growth inh: less growth of the S. pombe RE007 Vpr strain; S. pombe RE007 Vpr strain, BacTiter-Glo ATP luminescence, 24 h; control for the full effect not named in the record; Potency, µM (series often up to 92.2 µM), for inactives: top-dose activity change, negative = less growth; 0.21% of 360,000 active; active = well fitted falling curve with a large enough effect; inconclusive = small, poorly fitted or top-dose-only effect; inactive = no such curve, though single readings can be large or run the other way;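 also: % is scaled to controls: 0 for no effect and ±100 for the full control effect; nearly all actives have a fitted effect of over 50% in size; the assay follows cell death caused by Vpr and the record does not say whether a fall means rescue or toxicity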
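Fission yeast strain RE007, carrying one chromosomally integrated HIV-1 vpr copy, was seeded at OD 0.01 in PMG+AL medium with 23 nL pinned compound. After 24 h at 30 °C and 99% humidity, viability was read by BacTiter-Glo luminescence.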
SARS PLP yeast: SARS-CoV PLP inhibition in yeast | S. cerevisiae expressing SARS-CoV PLpro, growth rescue; control for the full effect not named in the record | Potency, µM (highest dose often 32.9 µM), for inactives: at the top dose activity, positive = growth rescue | 0.19% of 330,000 active; active means well fitted rising curve with a large enough effect; inconclusive means small, poorly fitted or top-dose-only effect; inactive means no such curve, though single readings can be large or run the other way; also: 0% is about no effect; nearly all actives have a fitted effect of over 55% in size; growth read by luminescence after 48 h
Cruzain inh noDet: blocks cruzain activity in detergent-free assay; Potency, µM, for the others: max response, negative = inhibition, most hits filed as inhibitors; P25779; purified cruzain, Z-FR-AMC fluorescence, no detergent; 2.3% of 200,000 active;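 also: plate controls were enzyme without inhibitor for no effect and buffer without enzyme for full effect; nearly all actives have a fitted effect of over 40% in size; top concentration of the series not given in the record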
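Detergent-free condition (0.00005% Triton X-100) in acetate buffer pH 5.5 with DTT. 1.5 nM enzyme and compound were pre-mixed 15 min, then 2 uM Z-FR-AMC substrate added; reaction progress from fluorescence change between first and third reads (60 s).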
The depositor's hits bear a star; u = inconclusive; x = no result given; & = joins results of further samples; [ ] = another dose, or the depositor's remark. Unless noted, calls follow the shape of the dose curve; as a rule, active = well fitted curve in the direction sought with a large enough effect; inconclusive = small, poorly fitted or top-dose-only effect, or another doubt; inactive = no such curve, though single readings can be large; an effect the other way counts as inactive or inconclusive. Potency is read from the fitted curve at half-maximal effect. Compounds as they come; overall some 4.8% were active at least once.

SMILES	Cruzain inh Det	Marburg entry inh	NS1 function inh	StopGo reporter	LASV entry inh	RE007 growth inh	SARS PLP yeast	Cruzain inh noDet
Cc1c(NC(=O)CC(O)(C(F)(F)F)C(F)(F)F)c(=O)n(-c2ccccc2)n1C	5.7%	-5%	0%	x	13%	-1%	10%	2%
CCCCCC(=O)Nc1nc(C)c(-c2csc(Nc3ccccc3OC)n2)s1	-2.0%	x	u	-25%	x	6%	-2%	13µM*
COC(=O)c1nnn(-c2nonc2N)c1CSc1nnc(N)s1	x	2%[46.1 µM]	x	0%	23%[46.1 µM]	10%	-2%	x
Cc1cccn2c(=O)c3cc(S(=O)(=O)c4ccc(Br)cc4)c(=N)n(C4CCCC4)c3nc12	x	x	1%	-10%	x	8%	3%	x
Nc1nc(SCc2ccccc2)c2ncn(CCO)c2n1	x	-8%	x	10%	1%	6%	x	x
CC(C)(C)c1ccc(C(=O)Nc2ccc(N3CCOCC3)cc2)cc1	-1.6%	u	-3%	x	-28%	8%	5%	19%
Oc1c(C(Nc2cccc(C(F)(F)F)c2)c2cccnc2)ccc2cccnc12 (stereo not drawn)	4.1%	u	-17%	-15%	u	-5%	u	27%
O=C(O)c1ccc(COc2ccc(CO)cc2Cl)cc1	-0.6%	u	-1%	x	-27%	0%	4%	-5%
CCOC(=O)c1c(C)[nH]c(C(=O)N2CCC(C(=O)OCC)CC2)c1C	x	22%[46.1 µM]	-25%	0%	u	-14%	5%	x
Nc1c(N(Cc2ccco2)C(=O)c2ccc(Cl)cc2)c(=O)[nH]c(=O)n1Cc1ccccc1	x	-7%	x	-3%	-2%	-10%	1%	x
COC(=O)C(NC(C)=O)(Nc1nc2c(s1)CCCC2)C(F)(F)F (stereo not drawn)	-4.6%	-12%[46.1 µM]	-6%	-18%	1%	-2%	3%	3%
CC(=O)Nc1ccc(S(=O)(=O)Nc2cccc(N(C)S(C)(=O)=O)c2)cc1	6.5%	12%[46.1 µM]	1%	-1%	-19%	13%	x	1%
NNc1nc(-c2ccccc2)c2cc(Br)ccc2n1	x	-14%[46.1 µM]	13%	-18%	-3%[46.1 µM]	-10%	-3%	x
CN(C(=O)c1ccc(S(=O)(=O)N2CCCC2)cc1)C1CCCCC1	6.2%	23%	-10%	-2%	-4%	0%	-6%	-3%
CC(C)c1nnc(NC(=O)CCc2ccccc2)s1	x	x	2%	33%[activator]	x	-11%	-3%	x
O=C(N[C@@H](Cc1ccccc1)C(=O)N1CCC2(CC1)NCCc1[nH]cnc12)c1cccc(F)c1	x	u	-20%	-7%	12%[46.1 µM]	4%	-4%	x
CCOc1ccccc1/C=C(\NC(=O)c1ccccc1)C(=O)NCCC(=O)O	-3.4%	u	8%	22%	4%	5%	-1%	-5%
COc1ccc(C(=O)c2ccsc2N)cc1	x	9%[46.1 µM]	5%	31%[activator]	8%	-12%	-3%	x
O=C(C[n+]1ccc(-c2nnc3n2CCCCC3)cc1)c1ccc(Cl)cc1	x	-13%	u	-6%	-22%	2%	0%	x
CCOC(=O)C(=NCCCN(C)C)NNc1ccc(Br)cc1	-2.1%	15%	-11%	-7%	1%	50%	-26%	8%
Clc1ccc(-n2nnc(-c3cccnc3Cl)n2)cc1Cl	x	x	0%	64%[activator]	x	7%	0%	x
CCN1CCN(CCCN(Cc2ccco2)C(=S)Nc2ccc(C)c(Cl)c2)CC1	x	u	0%	-3%	u	-19%	4%	x
CCOC(=O)N/N=C/c1ccccc1F	0.4%	u	-3%	26%	12%	-28%	0%	-9%
COc1ccccc1NC(=O)CCCC(=O)OC(C)C(=O)c1ccccc1 (stereo not drawn)	x	u	-7%	-9%	u	10%	0%	x
Cc1ccc(CN2C(=O)C3(c4ccccc42)N(c2ccc(C)c(Cl)c2)C(=O)CS3(=O)=O)cc1 (stereo not drawn)	-4.0%	-19%[46.1 µM]	x	-21%	u	x	x	1.3µM*
COc1ccc(NC(=O)c2sc3nc4c(cc3c2N)CN(Cc2ccccc2)CC4)cc1OC	-4.5%	-14%[46.1 µM]	x	u	6%[46.1 µM]	x	x	-4%
Cc1ccccc1C1C(=O)c2ccccc2C1=O	x	x	-53%	7%	x	-3%	-1%	x
CCN(C(=O)CN1CC=C(c2ccccc2)CC1)c1c(N)n(Cc2ccccc2)c(=O)[nH]c1=O	x	u	3%	-6%	x	-7%	3%	x
CCOc1ccc2oc(C(=O)NNC(=O)c3ccccc3O)c(C)c2c1	x	-4%[46.1 µM]	x	23%	-8%	-9%	7%	x
O=C(NCCc1ccccc1)c1noc2c1CCc1ccccc1-2	-0.3%	-13%	-14%	41%[activator]	-29%	7%	3%	-1%
COC(=O)c1cc(NC(=O)c2ccc(-c3ccccc3)cc2)ccc1Cl	-3.5%	u	-1%	-15%	u	1%	-21%	u
CC(C)C1N=C(c2ccc3c(c2)OCO3)CC(c2ccccc2O)N1 (stereo not drawn)	-6.2%	x	-125%	14%	x	u	-28%	-9%
COc1ccc(CCNC(=O)NC23CC4CC(CC(C4)C2)C3)cc1OC	0.7%	0%[46.1 µM]	-9%	-19%	u	17%	-7%	-4%
CC(=O)OC1(C(C)=O)CCC2C3CC(C(F)(F)F)C4=CC(=O)CCC4(C)C3CCC21C (stereo not drawn)	x	8.9µM*	x	-6%	u	-2%	x	x
Nc1nc2nccc(-c3ccco3)n2n1	x	4%[46.1 µM]	x	-2%	-9%[46.1 µM]	-5%	-1%	x
CC(C)(C)OC(=O)NCc1ccc(CNC(=O)c2[nH]cnc2C(=O)N[C@@H](Cc2ccccc2)C(=O)OC(C)(C)C)cc1	x	x	u	u	x	-11%	5%	x
Cc1ccc(S(=O)(=O)N2CCCC(C(=O)NCCC3=CCCCC3)C2)cc1 (stereo not drawn)	0.2%	4%	-1%	-2%	-1%	-9%	3%	5%
Cc1ccccc1-n1c(=S)[nH]c2nc3c(cc2c1=O)CCCC3	x	11%[46.1 µM]	11%	-15%	19%	18%	1%	x
CN1C[C@@H]2C(c3ccc(C(F)(F)F)cc3)C3(c4ccccc4)CC2(C3)[C@H]1c1ccccc1 (stereo partly drawn)	-1.4%	x	u	0%	x	7%	0%	-1%
CCNC(=S)N/N=C(\C)c1ccc2c(c1)OCCO2	-9.7%	2%	-23%	-12%	4%	1%	28%	-10%
CC(=O)c1cccc(N(C(=O)c2ccccn2)C(C(=O)NC2CCCCC2)c2cccs2)c1 (stereo not drawn)	4.2%	-20%	5%	x	13%	-2%	u	1%
CN(Cc1cccs1)C(=O)CSc1nc(N)cc(N)n1	x	2%[46.1 µM]	x	2%	u	3%	1%	x
CC(=O)Nc1ccc(OCCOc2ccc(NC(C)=O)cc2)cc1	x	x	6%	-2%	x	-2%	1%	x
CCc1ccc(OCC(=O)NC2CC(C)(C)NC(C)(C)C2)cc1	x	u	0%	-11%	u	32%	-1%	x
COc1cccc(N(CC(=O)NCCSCc2ccc(Cl)cc2)S(C)(=O)=O)c1	x	-2%	10%	-18%	-15%	18%	6%	x
COc1ccccc1-c1cc(C(F)(F)F)nc(N2CCN(c3ccc(F)cc3)CC2)n1	-5.0%	-3%&-3%	-9%	u	-2%	1%	-5%	-18%
COCCN(Cc1cc2ccc(C)cc2[nH]c1=O)S(=O)(=O)c1ccccc1	x	-9%[46.1 µM]	-19%	4%	-11%	0%	-1%	x
COc1cc2c(cc1NC(=S)Nc1cccc(C(F)(F)F)c1)oc1ccccc12	-7.5%	-24%	-2%	-6%	-1%	u	7%	16µM*
Cc1ccc(Cl)cc1N1CCN(C(=O)c2cn(C3CCCCC3)c(=O)c3c2c2ccccc2n3C)CC1	-2.1%	u	x	-10%	u	x	x	-24%
CCC1(C)Cc2ccccc2-c2nc3n(c(=O)c21)CCS3 (stereo not drawn)	-5.0%	-17%	-31%	u	0%	7%	-20%	7%

Continuation.
SMILES	Cruzain inh Det	Marburg entry inh	NS1 function inh	StopGo reporter	LASV entry inh	RE007 growth inh	SARS PLP yeast	Cruzain inh noDet
CC(C)N(Cc1ccccc1)S(=O)(=O)c1ccc(-c2cc(C(F)(F)F)on2)s1	-5.7%	x	x	-27%	-16%[46.1 µM]	x	x	-25%
Cc1ccccc1OCC(=O)Nc1ccc2nc(SCC(=O)N3CCc4ccccc43)sc2c1	-1.0%	0%[46.1 µM]	x	7%	-15%[46.1 µM]	x	x	2%
CC(C)Oc1cccc(C(=O)NC(=S)Nc2cccnc2)c1	-3.7%	-7%	5%	16%	-25%	-20%	u	-13%
CCc1noc(C)c1C(=O)Nc1nc2ccc(F)cc2s1	x	u	x	7%	15%	u	1%	x
C[C@@H]1CC[C@H](O)/C=C/C(=O)O[C@H](C)CC[C@H](O)/C=C/C(=O)O1	x	x	6%	0%	x	437%	1%	x
COc1ccc(N2C(=O)[C@@H]3Cc4ccccc4CN3C2=O)cc1	1.7%	11%	4%	-15%	25%	7%	6%	-4%
CN(Cc1cnn(-c2ccc(F)cc2)c1)Cc1nc(Cc2ccccc2)no1	x	u	-12%	-2%	-8%[46.1 µM]	-4%	-1%	x
CCN(CC)C(=O)c1cccc(NC(=O)c2cc(-c3ccccn3)nc3ccccc23)c1	x	u	x	-29%	-30%	-5%	-2%	x
Cn1c(=O)c2c(nc(N3CCOCC3)n2CCc2ccccc2)n(C)c1=O	x	-4%	-3%	-20%	-10%	6%	0%	x
CN1C(=O)C2(OCCCO2)c2ccccc21	x	x	-21%	-3%	x	5%	-8%	x
Fc1c(F)c(F)c(N/N=C/c2c[nH]c3ccccc23)c(F)c1F	-19%	u	23%	7%	-18%	16µM*	-104%	-10%
CCOC(=O)c1ccc(NC(=S)NC(=O)COc2ccccc2)cc1	-9.8%	3%	6%	0%	0%	8%	19%	9%
O=C(OCn1nnc2ccccc2c1=O)C1COc2ccccc2O1 (stereo not drawn)	6.4%	-5%	-43%	16%	0%	-15%	-23%	2%
